# RanGTP-Imp inh: inhibitors of RanGTP-importin-beta interaction, primary screen, biochemical, FRET, CFP-Ran, YFP-importin-beta, homogeneous | cell-free CFP-Ran/YFP-importin-beta FRET ratio | inhibition, % (test concentration not listed) | 300,000 tested, 1.1% active;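 active = most replicates above 15%; inconclusive = exactly half above 15%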;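 note: 0% = DMSO wells and 100% = Ran loaded with GDP instead of GTP; wells of about 40 µL received 100 nL stock; the first replicate is given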
# rRNA inh HTS: inhibitors of bacterial rRNA selective over humanized ribosomes | GFP signal change (wild-type ribosome), % (no concentration beside the values) | 350,000 tested, 1.6% active | E. coli WT GFP vs humanized-ribosome RFP mutants, fluorescence, 24 h; stronger effect = lower value; DMSO median 0, no signal -100;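 active = significant combined selectivity score with lowered wild-type GFP, culture density cut under 30%, mutant RFP and density less affected; inactive = any of these conditions unmet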; note: one replicate is shown; some compounds called inactive have numbers as strong as hits
# ALR H2O2 inh: blocks human ALR sulfhydryl oxidase activity; P55789; purified ALR, DTT oxidation, H2O2 HRP-luminol luminescence; inhibition, % (concentration not given with the values); 290,000 tested, 3.8% active;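 active = mean and each replicate at 75% or more; inconclusive = only one of the two met; inactive = neither met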;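 note: stock transfer was 7.5 nL into about 7.5 µL; 0% = neutral wells and 100% = wells with inactivated enzyme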
# Target sequence (P55789 whole entry, looked up): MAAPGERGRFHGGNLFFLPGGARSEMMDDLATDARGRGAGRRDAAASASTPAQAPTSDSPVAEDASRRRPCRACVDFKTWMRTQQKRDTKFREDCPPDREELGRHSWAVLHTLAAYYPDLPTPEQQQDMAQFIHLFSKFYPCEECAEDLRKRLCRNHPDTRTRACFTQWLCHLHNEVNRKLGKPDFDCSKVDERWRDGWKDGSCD
# AF4-AF9 inh: MLL-AF4/AF9 protein interaction inhibition. P42568. AlphaScreen, biotin-AF4 peptide binding to FLAG-AF9. inhibition, % at 10 µM. 350,000 tested, 0.47% active;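 active = every replicate reaching a set inhibition limit, whatever the replicate mean, cut at about 25% in these data; inconclusive = mean inhibition reaches that limit but some replicates miss it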;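 note: 0% = plate neutral control median and 100% = total signal loss; the record names both 10 and 1 µM as test concentration; the first replicate is given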
# Target sequence (P42568 whole entry, looked up): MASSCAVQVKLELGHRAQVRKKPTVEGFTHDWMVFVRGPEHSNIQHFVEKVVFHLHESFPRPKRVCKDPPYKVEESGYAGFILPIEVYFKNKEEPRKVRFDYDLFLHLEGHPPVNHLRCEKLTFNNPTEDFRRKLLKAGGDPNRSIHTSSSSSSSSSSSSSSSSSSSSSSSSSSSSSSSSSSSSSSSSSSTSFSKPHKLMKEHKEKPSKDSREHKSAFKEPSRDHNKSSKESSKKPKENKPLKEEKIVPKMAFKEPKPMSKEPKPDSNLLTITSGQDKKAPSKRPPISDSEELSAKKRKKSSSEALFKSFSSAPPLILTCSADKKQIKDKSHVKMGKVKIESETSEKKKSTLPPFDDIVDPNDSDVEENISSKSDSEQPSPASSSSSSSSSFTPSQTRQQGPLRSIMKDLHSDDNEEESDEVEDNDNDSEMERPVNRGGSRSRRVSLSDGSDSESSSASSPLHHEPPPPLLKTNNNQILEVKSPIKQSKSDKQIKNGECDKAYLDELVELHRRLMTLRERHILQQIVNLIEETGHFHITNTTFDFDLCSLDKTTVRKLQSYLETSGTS
# T cruzi repl: T. cruzi replication inhibition | T. cruzi beta-gal in NIH3T3, luminescence, 90 h | inhibition, % (concentration not given with the values) | 300,000 tested, 1.4% active | AID 1885;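 active = mean inhibition across valid replicates above about 55%, limit read from the data; inconclusive = mean below that limit but half or more replicates reach it; inactive = mean below it, under half of replicates reach it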;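 note: signal also drops with host cell toxicity which is not excluded here; 0% = plate median of DMSO wells and 100% = zero luminescence signal; higher percent means less beta-gal luminescence so fewer parasites; stock transfer was 50 nL into about 50 µL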
# Beta apoptosis: beta cell apoptosis inhibition; INS-1E cytokine-induced death, ATP luminescence, 48 h; percent of positive-control rescue, neutral wells zero; protection from apoptosis, % (concentration not given with the values); 300,000 tested, 0.8% active; AID 435005;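 active = all replicates at 75% or more, or half of them and the mean; inconclusive = half reach 75% but not the mean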;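 note: 0% = cytokine-treated negative control wells and 100% = positive control rescue; higher means more ATP so stronger rescue from cytokine killing; wells of about 40 µL received 100 nL stock; the first replicate is given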
# FGF22 binding: FGF22 (human) thermal shift binding | Q9HCT0 | recombinant FGF22 thermal shift, SYPRO orange fluorescence; percent of sucrose octasulfate shift, DMSO zero | calls only at 9.99 µM | 340,000 tested, 1.5% active | AID 651658;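 active = melting point raised past a set limit in the mean and every replicate; inconclusive = no clear call; three in four hits are not shown here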
# Target sequence (Q9HCT0 whole entry, looked up): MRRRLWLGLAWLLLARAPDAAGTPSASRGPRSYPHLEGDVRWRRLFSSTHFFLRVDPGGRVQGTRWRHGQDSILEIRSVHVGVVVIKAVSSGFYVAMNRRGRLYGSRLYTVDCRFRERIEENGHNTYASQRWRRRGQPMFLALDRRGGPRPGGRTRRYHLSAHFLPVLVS
# Calb FLC: affects C. albicans growth with fluconazole; C. albicans CaCi-2 (fluconazole-resistant clinical isolate) + fluconazole, Alamar Blue growth, 48 h; growth inhibition, % (concentration not given with the values); 300,000 tested, 0.57% active; AID 1979;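 active = most replicates above 75%; inconclusive = exactly half above 75%; inactive = most below 75%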;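 note: all wells also contain fluconazole at 8 µg/ml as a sub-toxic cotreatment; 0% = median of DMSO wells and 100% = median of geldanamycin control wells; wells of about 8 µL received 7.5 nL stock; the first replicate is given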
# rRNA inh HTS OD600: recorded beside rRNA inh HTS, whose call it bears; OD600 change, %; measured here: OD600 growth;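 optical density of the mix in the first replicate; 0 = DMSO median and -100 = no signal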
# rRNA inh HTS RFP: recorded beside rRNA inh HTS, whose call it bears; RFP signal change, %; measured here: RFP humanized mutant strains;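 first replicate; 0 = DMSO median and -100 = no signal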
# * = called active by the depositor; i = inactive; ? = inconclusive; / = not tested or not shown. The list is partial. The share of hits here may be higher or lower than overall.
SMILES,RanGTP-Imp inh,rRNA inh HTS,rRNA inh HTS OD600,rRNA inh HTS RFP,ALR H2O2 inh,AF4-AF9 inh,T cruzi repl,Beta apoptosis,FGF22 binding,Calb FLC
CCOc1ccccc1NC(=O)CSc1nc2cc(O)ccc2c(=O)n1-c1ccc(OC)c(OC)c1,-0.5,7,6,1.4,/,-2.5,-8,9,i,17
COc1ccc(C(C)=O)cc1COC(=O)c1cccc(N(C)C)c1,-1.1,/,/,/,?,/,1,-1,/,-18
CCOC(=O)c1c(C)[nH]c(C)c1C(=O)CSc1nnc(-c2ccncc2)n1C,-2.3,/,/,/,8,/,-11,-8,/,-2
O=C(NCC1CCCO1)c1nn2c(C(F)(F)F)cc(-c3ccc(Br)o3)nc2c1Br (centres undefined),-3.9,-1,12,-1.5,/,1.2,12,2,i,1
COc1ccc(C)cc1NC(=O)C(=O)N1CCCC1,-1.3,5,6,-1.0,2,-5.3,-12,2,i,-4
COc1ccc(CCN2CC(C(=O)NCc3ccc(F)cc3)CC2=O)cc1OC (centres undefined),-2.8,4,2,-0.5,-4,-0.7,-1,-7,i,-1
C/C(=N\NC(=O)Cn1cnc2ccccc21)c1cccs1,0.8,-13,-17,-1.4,-4,0.5,-19,-2,i,0
CCCCC(=O)N1CC(=O)Nc2ccc(F)cc2C1c1ccc(F)cc1 (centres undefined),0.6,6,14,1.1,-9,-2.1,-2,-6,i,-1
Cc1cccc(C(=O)c2c[nH]cc2-c2ccccc2)c1,5.5,/,/,/,/,/,2,-1,/,31
COc1ccc2c(c1)sc(=NC(=O)CS(=O)(=O)c1ccc(F)cc1)n2C,0.8,25,16,-1.4,/,0.7,63*,/,i,-3
CNC(=O)CSc1nnnn1-c1ccc2c(c1)OCCO2,-2.2,/,/,/,-1,/,-5,-2,/,-10
O=C(CS(=O)(=O)c1c[nH]c2ccccc12)N1CCc2ccccc21,1.8,-6,-14,-3.0,-3,4.9,-12,/,i,-4
O=C(NCc1ccc(Cl)cc1)C(=O)NCC1OCCN1S(=O)(=O)c1cccs1 (centres undefined),-1.9,1,5,0.8,-7,4.9,-1,-5,i,-1
Cc1noc(C)c1C(=O)OCC(=O)c1c[nH]c2ccccc12,4.3,/,/,/,-32,/,5,3,/,8
CCOc1cc(/C=C2\SC(=NC)N(C)C2=O)c(Br)cc1OC(C)=O,0.8,-7,-2,1.1,-21,2.7,-10,14,i,25
COc1cccc(CNC(=O)CCN2C(=S)NC(C)(C)CC2C)c1 (centres undefined),-1.5,5,9,4.0,0,-3.5,-20,7,i,?
O=C(CN1C(=O)COc2ccccc21)c1ccc(Cl)cc1,?,/,/,/,-31,/,-4,2,/,28
C=C1C(C(=O)Nc2ccccc2)C1C(=O)Nc1ccccc1 (centres undefined),4.8,9,6,3.2,-3,-9.4,-3,-7,i,0
CC(C)(C)c1ccc(C(=O)n2cnc3ccccc32)cc1,1.9,9,10,2.9,1,-1.3,3,-14,i,3
COc1cccc2cc(C(=O)N3CCCc4ccccc43)oc12,-5.0,-31,-42,-4.5,-1,-0.8,12,3,i,-18
O=C(C1CCN(S(=O)(=O)N2CCOCC2)CC1)N1CCOCC1,-2.6,18,15,-8.1,0,2.7,-15,-2,i,-3
CCc1nc2ccccc2c(=O)n1/N=C/c1ccc(Cl)cc1,-1.8,1,7,3.1,7,8.7,-8,1,i,3
CN(C)C(CN1C(=O)C2CC=CCC2C1=O)c1cn(C)c2ccccc12 (centres undefined),2.5,/,/,/,/,/,-5,-9,/,-2
CCOc1cc([N+](=O)[O-])c2nc(N)sc2c1,1.7,6,-1,-5.3,-10,-2.1,10,1,i,-1
CC(=O)Nc1ccc(NC(=O)CC(c2ccccc2)c2ccccc2)cc1,-1.2,-8,-3,-1.1,-11,-11,-3,-1,i,12
COc1cc(OC)cc(C(=O)N2CCC(N3CCN(c4ccccc4)CC3)CC2)c1,5.2,/,/,/,82*,/,-9,-7,/,-23
CN1CCCC(OC(=O)CCCCC(=O)OC2CCCN(C)C2)C1 (centres undefined),2.3,/,/,/,-3,/,15,-7,/,2
Cc1ccc(S(=O)(=O)NC(=O)NC(C)c2ccc(F)cc2)cc1 (centres undefined),-2.0,-6,-11,-2.7,-4,-7.1,-19,1,i,3
O=C(CN1C2CCCC1CC(NC(=O)c1ccccc1)C2)Nc1ccccc1 (centres undefined),-2.3,0,-4,-1.5,-8,-5.2,16,-1,i,3
COc1cc(OC)c(N(C)S(=O)(=O)c2cccc(C(=O)OCc3c(C)noc3C)c2)cc1Cl,-1.8,-1,-9,0.3,0,0.1,34,/,i,30
COc1cc(CNCCc2ccccc2)ccc1OCC(N)=O,-0.7,/,/,/,-34,1.8,53,-3,i,-2
CC1Cc2ccccc2N1C(=O)CN1C(=O)NC(C)(c2ccc3c(c2)OCCO3)C1=O (centres undefined),0.7,/,/,/,5,/,3,3,/,-12
O=C(Nc1ccccc1F)c1ccc(Cn2cc(Cl)cn2)cc1,5.5,-9,0,-2.0,100*,-8.8,-10,-4,i,-5
CCOc1ccc2nc(SCC3CC3(Cl)Cl)[nH]c2c1 (centres undefined),-1.4,-45,-46,-9.7,0,-2.3,-2,-4,i,-25
COc1ccc(-c2noc(N3CCC(C(=O)Nc4ccccc4F)CC3)n2)cc1,-0.6,0,7,5.1,-28,-0.9,4,-4,i,-18
O=C(Cn1cc(C(=O)C(F)(F)F)c2ccccc21)N1CCOCC1,1.6,4,5,1.3,1,-2.3,-23,-2,i,15
CN(C)c1cccc(C(=O)OCC(=O)Nc2nccs2)c1,-1.7,1,9,0.9,4,4.3,-11,-1,i,15
c1ccc2c(c1)OCC(c1csc3ncnc(N4CCCCC4)c13)O2 (centres undefined),-3.9,/,/,/,-2,/,6,2,/,-25
CSc1nnc(SCc2nc3sc(C(=O)O)c(C)c3c(=O)[nH]2)s1,-30,7,3,-4.2,5,-2.8,-3,-5,i,-5
Cc1ccc(Cl)cc1N1CCN(C(=O)C(C)n2ncn3cccc3c2=O)CC1 (centres undefined),2.2,-16,-63,-1.2,3,-4.3,8,0,i,1
CS(=O)(=O)Nc1cccc(C2=NN(C(=O)CCCC(=O)O)C(c3cccs3)C2)c1 (centres undefined),-5.0,5,10,3.5,7,-4.9,-9,-3,i,4
C=CCOc1ccc(CNn2cn[nH]c2=S)cc1OCC,-2.7,/,/,/,74,/,-15,-6,/,14
O=C(O)CCCC(=O)Nc1nc2n(n1)C(c1ccc(F)cc1)CC(c1ccc(Cl)cc1)N2 (centres undefined),?,/,/,/,5,/,17,-6,/,6
Cc1ccc(C(C(=O)NC2CCCC2)N(C(=O)Cc2cccs2)c2cccc(C)c2C)o1 (centres undefined),-1.8,/,/,/,3,/,42,-3,/,-5
Cc1cc(C)cc(N(C(=O)c2csnn2)C(C(=O)NC2CCCCC2)c2ccccn2)c1 (centres undefined),-0.8,3,-4,-0.2,-2,1.5,33,-4,i,5
CCC(=O)c1c(CC)c2n3c1CC[C@H]3CCC2,2.0,7,-6,7.9,-3,-2.6,24,-3,i,0
CCOc1ccc(CCNC(=O)CS(=O)(=O)Cc2nc(-c3ccccc3F)oc2C)cc1,1.2,1,-4,-0.5,-3,-1.8,-5,1,i,13
CCN(CC)C(=O)CSc1nc2c(sc(=S)n2CC)c(=O)n1-c1ccccc1,-1.0,/,/,/,1,/,17,2,/,8
O=C(CNS(=O)(=O)c1ccc(Cl)cc1)OCC(=O)N1CCCc2ccccc21,-2.6,/,/,/,/,/,-12,-5,/,-5
Cc1nc(CNS(=O)(=O)c2ccc3ccccc3c2)cs1,-5.0,-5,-9,1.2,0,-5.0,-3,5,i,-11
CCC(CC)c1nnc(NC(=O)CN2C(=O)NC3(CCCC3)C2=O)s1,0.5,-4,0,1.4,1,-2.9,6,-2,i,5
COc1cc(N2CCOCC2)ccc1C=C(C#N)C#N,0.0,35,30,66,/,1.0,-15,1,i,27
Cc1ccc(SCCC(=O)OC(C(=O)NC(N)=O)C(C)C)cc1 (centres undefined),1.9,-3,6,-0.8,-3,1.2,-21,-3,i,32
COc1ccc(C2N(c3cc(Cl)ccc3OC)C(=O)C3CCCN32)cc1OC (centres undefined),2.8,3,3,-0.3,-10,-0.7,-13,-4,/,-6
CC(=O)c1c(C)[nH]c(C(=O)NCCCN2CCCC2)c1C,-2.0,/,/,/,0,/,-1,/,/,-6
O=C(NNC(=O)C1CCCN(c2ncccn2)C1)c1ccc(F)cc1 (centres undefined),1.9,1,5,-0.7,-6,-8.0,-6,/,i,-4
COC(=O)C(Nc1nccs1)(OC)C(F)(F)F (centres undefined),?,/,/,/,-12,/,-35,-7,/,-16
N#Cc1ccc(Cl)cc1NC(=O)COC(=O)c1cccc(S(=O)(=O)N2CCOCC2)c1,/,-7,-4,1.6,-2,0.9,/,8,i,/
Cc1ccc(C(=O)CSc2nnc(CNc3ccc(C)cc3C)n2Cc2ccco2)cc1,5.6,/,/,/,6,/,17,3,/,4
COCCNC(=O)C(=O)N/N=C/c1ccc(C(=O)OC)cc1,-1.6,-6,6,-0.1,-3,-1.3,-10,0,i,-1

# Fetched by compound from above, 3 records:
SMILES,RanGTP-Imp inh,rRNA inh HTS,rRNA inh HTS OD600,rRNA inh HTS RFP,ALR H2O2 inh,AF4-AF9 inh,T cruzi repl,Beta apoptosis,FGF22 binding,Calb FLC
COCCNC(=O)C(=O)N/N=C/c1ccc(C(=O)OC)cc1,-1.6,-6,6,-0.1,-3,-1.3,-10,0,i,-1
CC(=O)c1c(C)[nH]c(C(=O)NCCCN2CCCC2)c1C,-2.0,/,/,/,0,/,-1,/,/,-6
Cc1cc(C)cc(N(C(=O)c2csnn2)C(C(=O)NC2CCCCC2)c2ccccn2)c1 (centres undefined),-0.8,3,-4,-0.2,-2,1.5,33,-4,i,5

# Next section:
SMILES,RanGTP-Imp inh,rRNA inh HTS,rRNA inh HTS OD600,rRNA inh HTS RFP,ALR H2O2 inh,AF4-AF9 inh,T cruzi repl,Beta apoptosis,FGF22 binding,Calb FLC
O=C(CSc1ncccc1C(=O)O)NC12CC3CC(CC(C3)C1)C2,-9.5,15,3,2.0,-5,-3.0,-13,-3,i,0
COc1ccc(C2OC(=O)c3ccccc3S2)cc1 (centres undefined),5.1,/,/,/,10,/,-12,-8,/,-1
CC(=O)OC1CSc2nc3ccccc3n2C1 (centres undefined),-0.2,/,/,/,-6,/,-30,-3,/,-2
CC(=O)c1cccc(NC(=O)Nc2ccc(C(=O)N3CCCC3)cc2)c1,2.3,/,/,/,-1,/,-29,8,/,-4
Cc1ccc(N2CC(C(=O)Nc3nnc(SCC(=O)NCC4CCCO4)s3)CC2=O)cc1 (centres undefined),3.1,10,2,-1.4,3,-1.4,-4,-2,i,-15
O=C(CCN1C(=O)/C(=C/c2cccs2)SC1=S)Nc1ccccn1,-1.3,18,12,67,-4,-0.8,9,2,/,-16
O=C(CC1Nc2ccccc2NC1=O)Nc1cc(Cl)cc(Cl)c1 (centres undefined),4.9,/,/,/,-1,/,?,23,/,27
N#Cc1cccc(NC(=O)CSc2cccc[n+]2[O-])c1,/,0,5,-2.2,/,0.6,/,1,i,/

# Compound activity: PubChem BioAssay, Broad Institute
